Compound activity from PubChem BioAssay.
StopGo reporter: FMDV 2A StopGo reporter, luciferase signal; human cells with a luciferase reporter of 2A StopGo recoding; control for the full effect not named in the record; Potency, µM (series often up to 57.9 µM), for the others: at the top dose signal change, negative = less light; 410,000 compounds, 1.2% hits; active = well fitted falling curve with a large enough effect; inconclusive = small, poorly fitted or top-dose-only effect; inactive = no such curve, though single readings can be large or run the other way; tested in HEK293T cells; further: on the % scale 0 is the no-effect control and ±100 the full control effect; nearly all actives have a fitted effect of over 45% in size; luciferase light after 4 h
Cruzain inh Det: cruzain (T. cruzi) inhibition with detergent. AID 1478. Potency, µM, inactives show max response, negative = inhibition, hits mostly inhibitors. purified cruzain, Z-FR-AMC fluorescence, 0.01% Triton. 200,000 compounds, 0.43% hits; active means well fitted curve in the direction sought with a large enough effect; inconclusive means small, poorly fitted or top-dose-only effect, or another doubt; inactive means no such curve, though single readings can be large; an effect the other way counts as inactive or inconclusive;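 further: plate controls were neutral wells for no effect and buffer without enzyme for full effect; nearly all actives have a fitted effect of over 40% in size; top concentration of the series not given in the record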
Target sequence (P25779 123-467 limits assumed): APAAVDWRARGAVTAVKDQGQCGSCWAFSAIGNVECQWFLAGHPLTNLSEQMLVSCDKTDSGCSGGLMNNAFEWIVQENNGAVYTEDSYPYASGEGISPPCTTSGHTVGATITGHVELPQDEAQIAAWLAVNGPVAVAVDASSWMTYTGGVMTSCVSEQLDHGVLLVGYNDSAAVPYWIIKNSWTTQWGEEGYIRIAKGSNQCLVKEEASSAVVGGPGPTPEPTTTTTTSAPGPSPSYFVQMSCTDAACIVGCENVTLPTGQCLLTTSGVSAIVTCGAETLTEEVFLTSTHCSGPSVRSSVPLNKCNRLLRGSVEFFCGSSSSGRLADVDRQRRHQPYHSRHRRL
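Enzyme 1.5 nM, Z-FR-AMC 2 uM, NaOAc 100 mM pH 5.5, DTT 5 mM, Triton X-100 0.01%; 15 min RT compound preincubation; kinetic ex360/em450, 60 s delta.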
RE007 growth inh: less growth of the S. pombe RE007 Vpr strain; S. pombe RE007 Vpr strain, BacTiter-Glo ATP luminescence, 24 h; control for the full effect not named in the record; Potency, µM (doses to about 92.2 µM), inactives show top-dose activity change, negative = less growth; 360,000 compounds, 0.21% hits; AID 651644; active = well fitted falling curve with a large enough effect; inconclusive = small, poorly fitted or top-dose-only effect; inactive = no such curve, though single readings can be large or run the other way;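 further: on the % scale 0 is the no-effect control and ±100 the full control effect; nearly all actives have a fitted effect of over 50% in size; the assay follows cell death caused by Vpr and the record does not say whether a fall means rescue or toxicity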
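Fission yeast RE007 carrying one integrated HIV-1 vpr copy, seeded at OD 0.01 in PMG+AL medium with 23 nL pinned compound. Grown 24 h at 30 degrees; viability read by BacTiter-Glo luminescence after 5 min.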
Lassa entry inh: inhibitors of Lassa virus binding or cell entry; Lassa virus pseudotype entry inhibition, cell reporter; control for the full effect not named in the record; Potency, µM (doses to about 37.9 µM), without a hit: at the highest dose activity change, negative = inhibition, most hits filed as inhibitors; 300,000 compounds, 1.2% hits; AID 540256; active means well fitted inhibition curve with a large enough effect; inconclusive means small, poorly fitted or top-dose-only effect, or effect the other way; inactive means flat fitted curve, though single readings scatter; tested in HEK293 cells; further: on the % scale 0 is the no-effect control and ±100 the full control effect; nearly all actives have a fitted effect of over 50% in size; luciferase read-out
Cruzain noTriton: cruzain (T. cruzi) inhibition without detergent. P25779. purified cruzain, Z-FR-AMC fluorescence, no detergent. Potency, µM, without a hit: max response, negative = inhibition, actives largely listed as inhibitors. 200,000 compounds, 2.3% hits; active means well fitted curve in the direction sought with a large enough effect; inconclusive means small, poorly fitted or top-dose-only effect, or another doubt; inactive means no such curve, though single readings can be large; an effect the other way counts as inactive or inconclusive;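 further: plate controls were enzyme without inhibitor for no effect and buffer without enzyme for full effect; nearly all actives have a fitted effect of over 40% in size; top concentration of the series not given in the record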
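Purified cruzain at 1.5 nM, pre-incubated 15 min with compound at room temperature in 100 mM sodium acetate pH 5.5, 5 mM DTT, 0.00005% Triton X-100. Reaction started with 2 uM Z-FR-AMC; AMC fluorescence increase over 60 s gives rate.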
Marburg entry inh: blocks Marburg virus binding to or entry into cells. Marburg virus pseudotyped entry inhibition, cell reporter; control for the full effect not named in the record; about a third of the inactives were read at about 46 µM. Potency, µM (top dose mostly 37.8 µM), without a hit: top-dose activity change, negative = inhibition, most hits filed as inhibitors. 300,000 compounds, 1.8% hits; active = well fitted inhibition curve with a large enough effect; inconclusive = small, poorly fitted or top-dose-only effect, or effect the other way; inactive = flat fitted curve, though single readings scatter; tested in HEK293 cells; about a fifth of its hits are not listed in these tables; further: on the % scale 0 is the no-effect control and ±100 the full control effect; luciferase read-out
SARS PLpro yeast: inhibitors of SARS-CoV papain-like protease in yeast | S. cerevisiae expressing SARS-CoV PLpro, growth rescue; control for the full effect not named in the record | Potency, µM (top dose mostly 32.9 µM), for inactives: top-dose activity, positive = growth rescue | 330,000 compounds, 0.19% hits; further: 0% is about no effect; nearly all actives have a fitted effect of over 55% in size; growth read by luminescence after 48 h
NS1 function inh: influenza NS1 inhibition. S. cerevisiae slowed by influenza A NS1, growth recovery by OD600. Potency, µM (series often up to 46.1 µM), for the others: at the highest dose activity, positive = more growth. 270,000 compounds, 0.4% hits. AID 2326; further: actives are rising curves; nearly all actives have a fitted effect of over 50% in size
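Growth recovery, yeast-based: influenza A NS1 expressed in S. cerevisiae causes slow growth, and suppressors are detected by OD600. The parent strain without NS1 is used as positive control.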
Starred values were filed as active, the others as inactive; u = inconclusive; x = no result given; [ ] = another dose, or the depositor's remark. Unless noted, the call rests on the fitted dose curve; in most records, active means well fitted rising curve with a large enough effect; inconclusive means small, poorly fitted or top-dose-only effect; inactive means no such curve, though single readings can be large or run the other way. Potency means the concentration at half of the fitted maximal effect.

SMILES	StopGo reporter	Cruzain inh Det	RE007 growth inh	Lassa entry inh	Cruzain noTriton	Marburg entry inh	SARS PLpro yeast	NS1 function inh
CCN1CCN(c2ccc(S(=O)(=O)N3CCOCC3)cc2NC(=O)COc2ccc(F)cc2Cl)CC1	-2.7%	x	12.4%	2.9%[46.1 µM]	x	u	20.4%	7.5%
O=C(OC(C(=O)NCc1ccc2c(c1)OCO2)c1ccccc1F)c1ccco1 (stereo not drawn)	26.0%	-6.5%	15.0%	18.4%	-16.4%	15.6%	13.3%	-6.5%
O=C(CN1CCC(NC(=O)Nc2ccccc2)CC1)Nc1ccc([N+](=O)[O-])cc1	35.8%[activator]	x	-8.2%	15.8%[46.1 µM]	x	5.3%[46.1 µM]	0.0%	-7.9%
COc1ccc2oc(C(=O)OCC(=O)N3CCN(C(C)=O)CC3)c(C)c2c1	-3.3%	x	22.8%	-23.1%	x	u	-1.8%	x
O=S(=O)(Nc1cccc(-n2cnnn2)c1)c1ccccc1C(F)(F)F	19.3%	x	-0.7%	x	x	x	3.0%	-11.2%
CC1CC(C)CN(C(=O)Cn2nnc(-c3ccc(Br)cc3)n2)C1 (stereo not drawn)	-16.1%	x	13.9%	x	x	-24.9%[46.1 µM]	-0.8%	2.3%
CCOC(=O)C1CCN(C(=O)COc2ccc(C(=O)c3ccccc3)cc2)CC1	u	x	11.5%	-7.5%[46.1 µM]	x	-4.3%[46.1 µM]	9.1%	x
Cn1nnc(NC(=O)c2cccs2)n1	5.5%	x	-8.9%	8.2%[46.1 µM]	x	23.3%[46.1 µM]	-0.1%	x
Cc1cccc(C)c1NC(=O)CN1CCNCC1	-9.8%	3.9%	24.8%	9.1%	7.9%	5.2%[46.1 µM]	4.9%	2.2%
CCOc1ccc(C(=O)NCC2CCN(CC3CCCCC3)CC2)cc1	-3.1%	x	-0.5%	9.1%	x	2.8%	1.6%	9.4%
CCOc1ccc(/C=C(\C#N)C(=O)NCC2CCCO2)cc1OCC (stereo not drawn)	-18.9%	-1.1%	u	3.3%	1.6%	13.9%	-6.4%	-9.5%
COc1ccc(C(=O)NCCSCc2ccc(Cl)cc2)cc1OC	-4.2%	x	-19.9%	x	x	x	-0.5%	-43.4%
O=C(Nc1ccccc1)c1cccnc1Nc1ccccc1	10.5%	-9.9%	-8.8%	-8.1%	4.6%	-10.5%	-5.3%	-11.6%
Cc1ccc(NC(=O)c2cncc(Br)c2)nc1	15.0%	x	-0.4%	-32.8%[46.1 µM]	x	u	-7.4%	-11.7%
FC(F)(F)c1cc(NC(=S)NC23CC4CC(CC(C4)C2)C3)cc(C(F)(F)F)c1	x	-1.5%	x	u	-14.8%	u	x	x
Cc1ccc(OCC(=O)NNC(=O)Nc2ccc(Cl)cc2)c(Br)c1	4.0%	x	-1.0%	-4.0%[46.1 µM]	x	u	x	x
COc1ccccc1C(=O)NC(=O)COC(=O)c1ccc(Cl)cc1[N+](=O)[O-]	-22.2%	x	-1.4%	-1.7%	x	0.3%	-1.4%	x
O=C(Nc1cnc(N2CCN(c3ccccc3)CC2)c(C(=O)O)c1)c1cccs1	-12.6%	0.5%	x	14.1%[46.1 µM]	-4.2%	x	x	x
O=C(Nc1ccnn1C1CCN(C(=O)c2ccc(Cl)c(F)c2)CC1)C1CCOC1 (stereo not drawn)	-20.3%	x	7.8%	4.4%	x	u	-3.7%	0.4%
Cc1ccc(S(N)(=O)=O)cc1	-0.1%	0.6%	-6.2%	x	-7.4%	4.6%	17.6%	x
Cc1noc(C)c1C(=O)OCC(=O)/C=C1\N(C)c2ccccc2C1(C)C	7.9%	-7.8%	-1.8%[3.69 µM]	0.9%	-0.9%	1.4%	4.4%	-0.4%
Cc1cc(C(=O)COC(=O)c2cccc(NS(C)(=O)=O)c2)c(C)n1CC1CCCO1 (stereo not drawn)	11.2µM*	x	-1.8%	10µM*	x	5.62µM*	1.4%	x
COc1ccc(N2CCOCC2)c(NC(=O)c2ccco2)c1	-3.6%	x	-11.8%	-9.9%[46.1 µM]	x	u	1.6%	10.1%
CCOc1ccc(NS(=O)(=O)c2ccc3[nH]c(=O)oc3c2)cc1	0.6%	-2.5%	2.5%	x	2.2%	x	-3.4%	-1.8%
Cc1cc(Cl)ccc1NC(=O)C(=O)NCc1ccco1	48.2%[activator]	0.5%	x	4.7%[46.1 µM]	-14.3%	x	x	x
CC(C)[C@H](Nc1ccc(C(F)(F)F)cc1[N+](=O)[O-])C(=O)O	u	x	-5.7%	-1.7%[46.1 µM]	x	u	2.2%	4.1%
CC(=O)c1ccc(NC(=O)CCc2c(C)nc3ncnn3c2C)cc1	37.0%[activator]	-1.9%	15.6%	8.3%	-10.7%	22.8%	4.2%	7.4%
Cc1cccc(OCC(=O)O/N=C(\N)Cc2ccc(Cl)cc2)c1	-25.2%	-2.3%	1.5%	-27.6%	-4.3%	2.0%	x	-15.1%
COc1ccc(C(=O)N2CCc3ccc(NC(=O)c4ccccn4)cc3C2)cc1F	u	x	-3.1%	x	x	x	-17.4%	-31.9%
O=C(NC1CCCC1)C1CCC(CNS(=O)(=O)c2ccc(F)cc2)CC1 (stereo not drawn)	2.4%	x	-5.8%	x	x	x	4.2%	2.0%
Cc1cccc(C(=O)NC(=O)Nc2ccc(-n3nc(C(F)(F)F)cc3C(F)(F)F)cc2)c1	-9.6%	-2.4%	x	-19.5%[46.1 µM]	-10.6%	-14.9%[46.1 µM]	x	x
Cn1cc(CNC(=O)C2CCC(=O)N(Cc3cccc(C(F)(F)F)c3)C2)cn1 (stereo not drawn)	-3.2%	x	-12.3%	3.2%	x	13.5%	4.4%	-3.7%
Cc1c(C(=O)Nc2ccccc2Br)oc2ccc(S(=O)(=O)N3CCCCC3)cc12	-5.0%	1.3%	x	29.3%[46.1 µM]	-19.8%	x	x	x
Cc1ccc(S(=O)(=O)n2nc(OC(=O)c3ccccc3C)cc2N)cc1	48.4%[activator]	x	-3.1%	1.7%[46.1 µM]	x	22.5%[46.1 µM]	3.7%	10.1%
COc1ccc(/C=c2\s/c(=C/C(=O)c3ccc(C)cc3)[nH]c2=O)c(OC)c1	-12.0%	-6.9%	5.5%	u	25.1µM*	9.2%	-2.4%	13.3%
COc1ccc2[nH]c3c(=O)n(CCCC(=O)NC4CCCCC4C)c(=S)[nH]c3c2c1 (stereo not drawn)	13.2%	x	-6.2%	3.3%	x	u	-1.4%	6.8%
COc1ccc(-c2ccc(SCC(=O)c3cccs3)nn2)cc1OC	-12.0%	x	3.1%	-9.9%	x	-3.8%	-1.3%	3.6%
O=C(N/N=C/c1cc(Br)c(Br)o1)c1cccnc1	8.4%	-5.7%	-1.9%	-16.4%	-7.2%	-24.1%	-6.9%	-4.4%
Cc1cccc(/C=C/C(=O)c2ccc(N3CCOCC3)cc2)c1	x	-11.7%	x	3.1%	u	16.3%	10.0%	-6.6%
Cc1ccc(N2CN(Cc3ccco3)CNC2=S)c(C)c1	0.4%	5.2%	-6.5%	u	-8.5%	7.1%	u	19.6%
CSc1ncc2[nH]c(C(O)c3ccccc3)nc2n1 (stereo not drawn)	-10.2%	x	-6.9%	u	x	u	x	x
Cc1cc(C(=O)N/N=C/c2ccc[nH]2)n[nH]1	0.2%	-9.0%	32.3%	6.7%	9.8%	-2.0%[46.1 µM]	-0.3%	-4.6%
Cn1nccc1C(=O)OCC(=O)Nc1cccc(Cl)c1	15.4%	x	-2.0%	-1.0%	x	u	-0.4%	x
CCC(C)(C)c1nnc(NC(=O)c2cccc([N+](=O)[O-])c2)s1	22.1%	-6.3%	-3.1%	-16.0%	-14.6%	u	1.8%	-1.9%
COc1ccc(NC(=O)C2CCC(CNc3c(N4CCOCC4)c(=O)c3=O)CC2)cc1Cl (stereo not drawn)	-13.3%	x	-8.1%	-5.5%	x	-3.4%[46.1 µM]	-4.3%	-1.7%
Cc1cc(OCC(=O)OCC(=O)NCc2ccco2)ccc1Cl	8.0%	x	-0.8%	-1.6%	x	5.7%[46.1 µM]	4.8%	x
Cc1ccc2nc(CSc3nnc(NC(=O)COc4ccccc4F)s3)cc(=O)n2c1	2.3%	1.7%	x	11.8%[46.1 µM]	-9.4%	x	x	x
CCCCn1c(N)c(N(CC(C)C)C(=O)Cn2c(=O)oc3ccccc32)c(=O)[nH]c1=O	-20.2%	x	5.8%	u	x	-0.1%[46.1 µM]	1.3%	x
Cc1ccc(-c2noc(-c3ccc(NCc4cccnc4)c([N+](=O)[O-])c3)n2)cc1	14.4%	-3.4%	x	2.3%[46.1 µM]	0.9%	-6.1%[46.1 µM]	x	x
O=C(NCCc1ccccc1)C(=O)NCC(c1cccnc1)N1CCN(c2ccc(F)cc2)CC1 (stereo not drawn)	u	-8.1%	x	u	u	x	x	x
Clc1c(-c2nnc3n2CCCCC3)sc2ccccc12	36.3%[activator]	1.8%	-22.1%	21.2%	7.9%	11.8%	1.2%	-24.9%
COC(=O)N/N=C/c1cc(N=Nc2ccccc2Cl)ccc1O	-8.4%	x	-1.3%	x	x	x	-1.7%	1.3%
Cc1c(Cl)cccc1NC(=O)NCc1ccc(F)cc1	50.9%[activator]	x	9.6%	x	x	x	0.1%	1.5%
CC1(C)C=C(c2ccc(C=O)s2)CC(C)(C)N1	-5.1%	-2.2%	1.4%	u	0.6%	3.8%	1.7%	1.7%
Cc1nc2c(sc(=S)n2Cc2ccco2)c(=O)n1CC(=O)Nc1ccccc1	-16.9%	x	-4.8%	x	x	x	-22.8%	3.5%
CC(=C/c1ccccc1)/C=N/n1c(-c2ccncc2)n[nH]c1=S	-4.7%	x	-4.4%	2.9%[46.1 µM]	x	-18.0%[46.1 µM]	0.2%	1.3%
C=CCNC(=O)COc1c(C)ccc(C)c1C	-8.2%	x	13.6%	u	x	-9.5%[46.1 µM]	1.0%	1.5%
CN(CC(=O)Nc1ccccc1Br)CC(=O)Nc1ccccc1C(F)(F)F	-11.6%	x	6.1%	9.5%[46.1 µM]	x	-16.8%[46.1 µM]	1.4%	-0.6%
